Bioassay records: PubChem BioAssay, National Center for Advancing Translational Sciences (NCATS)
Resorufin autofl: compounds fluorescent in resorufin spectral region. actives 0.04% (n = 59,000). Compound fluorescence, resorufin region 547/598 nm, buffer; hits give high values. max dye-equivalent concentration, M; active = above 10 nM dye equivalent; inconclusive = 1 to 10 nM; inactive = 1 nM or less; a few of its hits are not listed in these tables; note: highest value over a series up to 38 µM
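Compounds in 100 mM Tris buffer, pH 8.0, incubated 15 min at room temperature, then read with 547 nm excitation and 598 nm emission filters. Fluorescence was converted to dye-equivalent concentration using an on-plate six-point resorufin standard curve.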
TSHR agonist: agonists of human thyroid stimulating hormone receptor; Potency, µM (highest dose often 57.1 µM), for inactives: at the highest dose activation, most hits filed as activators; AID 926; HEK293-CNG-TSHR cells (CNG channel as cAMP sensor), membrane potential dye, cAMP; actives 0.48% (n = 73,000); P16473; active = well fitted activation curve of enough size with the parental cells flat; inconclusive = any curve in the parental cells; inactive = parental cells flat and receptor cells flat or falling; note: potency is the fitted concentration of half-maximal effect; % of control where 0% means no effect; weak receptor curves with flat parental cells got no call and are not listed
Target sequence (P16473 whole entry, looked up): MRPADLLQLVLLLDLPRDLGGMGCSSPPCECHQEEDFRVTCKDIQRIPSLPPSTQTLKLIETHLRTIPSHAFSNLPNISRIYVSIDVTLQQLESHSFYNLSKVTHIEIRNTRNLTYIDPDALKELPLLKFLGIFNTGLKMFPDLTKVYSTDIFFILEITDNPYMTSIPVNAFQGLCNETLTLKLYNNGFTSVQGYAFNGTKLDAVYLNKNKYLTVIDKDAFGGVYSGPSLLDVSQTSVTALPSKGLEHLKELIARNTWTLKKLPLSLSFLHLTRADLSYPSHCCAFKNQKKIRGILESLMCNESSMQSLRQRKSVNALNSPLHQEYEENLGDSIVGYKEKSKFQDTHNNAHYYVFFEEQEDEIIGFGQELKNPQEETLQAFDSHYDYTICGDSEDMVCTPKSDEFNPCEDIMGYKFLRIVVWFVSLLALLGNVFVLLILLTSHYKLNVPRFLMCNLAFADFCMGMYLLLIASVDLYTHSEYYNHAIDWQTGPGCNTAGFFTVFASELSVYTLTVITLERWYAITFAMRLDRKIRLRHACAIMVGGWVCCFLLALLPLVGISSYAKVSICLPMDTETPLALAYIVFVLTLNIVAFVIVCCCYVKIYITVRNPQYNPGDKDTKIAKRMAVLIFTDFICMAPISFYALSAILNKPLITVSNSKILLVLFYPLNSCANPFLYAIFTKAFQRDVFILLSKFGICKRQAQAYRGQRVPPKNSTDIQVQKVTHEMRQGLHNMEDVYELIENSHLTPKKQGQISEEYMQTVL
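HEK 293 cells stably expressing TSHR and a modified CNG channel, with CNG-only parental cells as counterscreen, were preloaded 60 min at room temperature with membrane potential dye containing 100 uM RO 20-1724. Compound exposure was 30 min, and depolarization was read as fluorescence at 590 nm.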
AID923: qHTS Assay for Allosteric/Competitive Inhibitors of Caspase-1: Spectroscopic Profiling in AFC Spectral Region | actives 1.1% (n = 75,000) | AID 923, 2007 | compound fluorescence, AFC spectral region (405/520 nm); almost no hit is shown here | Potency, µM (top dose mostly 57.5 µM), for the others: at the top dose fluorescence increase, usual class: activators; active = well fitted activation curve with a large enough effect; inconclusive = small, poorly fitted or top-dose-only effect;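 note: potency is the fitted concentration of half-maximal effect; 0% is about no effect; scaled to a free AFC standard on each plate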
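Titrations up to 57 uM read every 20 sec for 3 min (405/520 nm) with 50 nM caspase 1 and 5 uM Ac-WEHD-AFC, pH 7.5 HEPES buffer. Fluorescence-vs-time intercept gave baseline, scaled against on-plate AFC standard.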
A488 fluor: compound autofluorescence in A488 spectral region. actives 0.1% (n = 59,000). max dye equivalency, M. compound autofluorescence, A488 spectral region, dye equivalency; hits give high values; active = above 10 nM dye equivalent; inconclusive = 1 to 10 nM; inactive = 1 nM or less; about half of its hits are not listed in these tables;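 note: highest value over a series up to 38 µM; compound alone in buffer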
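Spectroscopic profiling in the A488 region: compounds in pH 8.0 Tris (100 mM), 15 min RT, CCD imaging with 480 nm excitation and 540 nm emission; responses normalized against A488 dye standards.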
A647 fluor: compound fluoresces in the A647 spectral region. 59,000 tested, under 10 active. max dye-equivalent concentration, M. AID 592. Compound fluorescence, A647 channel (570/671 nm), Tris buffer; active means above 1 µM dye equivalent; inconclusive means 0.1 to 1 µM; inactive means 0.1 µM or less;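 note: values scaled relative to a standard on each plate; highest value over a series up to 38 µM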
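Compound fluorescence was measured in 100 mM Tris buffer, pH 8.0, after 15 min at room temperature, using 570 nm excitation and 671 nm emission filters. Signal was normalized to a per-plate Alexa 647 standard curve and expressed as dye-equivalent concentration at each compound concentration.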
* = called active by the depositor; i = inactive; ? = inconclusive; · = not tested or not shown; [ ] = dose if it differs, or a comment. Some of the compounds tested (hit frequency here may not be typical).

Every second line gives: Resorufin autofl	TSHR agonist	AID923	A488 fluor	A647 fluor
1	C=CCOc1ccc(/C(O)=C2\C(=O)C(=O)N(CCOC)C2c2cccnc2)cc1 (stereo not drawn)
 : i	-11.1%	3.5%	i	2.4e-09
2	CNC(=O)[C@@H]1O[C@@H](n2cnc3c(NCc4ccc(N)cc4)ncnc32)[C@@H](O)[C@H]1O
 : i	?	-2.0%	i	4.35e-08
3	Brc1cnn(-c2nc(N3CCOCC3)nc(N3CCOCC3)n2)c1
 : i	12.4%[11.4 µM]	-1.6%	i	3.5e-09
4	COc1ccc(S(=O)(=O)NC(CC(=O)NCc2ccco2)c2ccco2)cc1 (stereo not drawn)
 : i	18.1%	0.3%	i	2.22e-08
5	Cc1cc(-c2ccc(N=Nc3cc(S(=O)(=O)O)c4ccccc4c3N)c(C)c2)ccc1N=Nc1cc(S(=O)(=O)O)c2ccccc2c1N
 : ·	?	1.5%	·	·
6	COc1cccc(-n2cc3c(=O)n(C)c(=O)n(C)c3c2)c1
 : i	4.8%	1.7%	i	2.4e-09
7	Cc1ccc(S(=O)(=O)N(C)c2ccc(C(=O)O)cc2)cc1
 : i	-3.9%	-0.6%	i	2.82e-08
8	Cc1cc(C(=O)Nc2cccc3ncccc23)no1
 : i	-0.5%	1.8%	i	5.6e-09
9	CCS(=O)(=O)NCc1csc(-c2ccccc2)n1
 : ·	-1.1%	-0.4%	·	·
10	O=C(CSc1ncccn1)Nc1ccccc1
 : ·	?	-1.3%	·	·
11	COc1cccc(Cn2nnc(C(=O)NCc3ccccc3Cl)c2N)c1
 : ·	15.4%	2.9%	·	·
12	OC(COCC1CC=CCC1)Cn1cnc2ccccc21 (stereo not drawn)
 : i	?	-0.8%	i	1.82e-08
13	Cc1ccc2c(c1)NCC(C(=O)NC1CCCCC1)O2 (stereo not drawn)
 : i	4.8%	-1.5%	i	4.76e-08
14	CC(=O)N1CSCC1C(=O)O (stereo not drawn)
 : i	0.9%	-0.9%	i	2.61e-08
15	O=C(Cc1cccs1)N1CCN(C(=O)C2CCCO2)CC1 (stereo not drawn)
 : i	0.4%	1.8%	i	8.5e-09
16	C/C(C=O)=C/c1ccccc1
 : ·	?	3.0%	·	·
17	COC(=O)c1ccc(C)c(NC(=O)c2c(-c3ccccc3)noc2C)c1
 : i	2.8%[11.4 µM]	-0.7%	i	7.5e-09
18	c1coc(CNc2nc3sc4c(c3c3ncnn23)CCCC4)c1
 : i	20.7%	-1.3%	i	2.9e-09
19	COc1ccc(NC(=O)c2cc(C3CC3)on2)c(OC)c1
 : ·	6.9%	2.4%	·	·
20	CCC1(CC)NC(=O)N(CC(=O)OCC(=O)Nc2cc(C)ccc2C)C1=O
 : i	3.0%	-1.0%	i	1e-09
21	CCOC(=O)N1CCN(C(=O)c2oc3ccc(S(=O)(=O)N4CCCCC4)cc3c2C)CC1
 : i	3.2%	-0.1%	i	3.86e-08
22	COc1ccc(C2CC(c3cc(Br)ccc3F)n3nnnc3N2)cc1 (stereo not drawn)
 : i	9.0%	0.1%	i	1e-09
23	CC(C)C1N(c2ccccc2)C(N)=C(C#N)C1(C#N)C#N (stereo not drawn)
 : i	18.6%	-1.0%	i	3.31e-08
24	O=C(OC1CCCCC1)c1ccc2c(c1)C1C=CCC1C(C(=O)O)N2 (stereo not drawn)
 : i	0.9%	3.0%	i	2.64e-08
25	CC1(C)CC(=O)C2=C(C1)Nc1ccccc1NC2c1cccnc1 (stereo not drawn)
 : ·	-9.4%	2.2%	·	·
26	Cc1c(NC(=O)c2cnn3c2NC(c2ccco2)CC3C(F)(F)F)c(=O)n(-c2ccccc2)n1C (stereo not drawn)
 : ·	-0.3%	2.2%	·	·
27	CCCn1c(NCc2cccc(OC)c2O)nc2ccccc21
 : i	·	-0.4%	i	1e-09
28	COCCOC(=O)C1=C(C)OC(N)=C(C#N)C1c1ccco1 (stereo not drawn)
 : i	·	·	i	1e-09
29	CC(NC(=O)c1cc2c(=O)n(C)c3ccccc3c2n1C)c1ccc2c(c1)OCCO2 (stereo not drawn)
 : ·	1.7%	-0.4%	·	·
30	Cc1cccc(Nc2nc(N)nc(CN3CCN(Cc4ccc5c(c4)OCO5)CC3)n2)c1
 : i	12.7%	-0.3%	i	1.7e-09
31	O=C(Oc1nsnc1N1CCCCC1)N1CCOCC1
 : i	1.9%	-0.4%	i	1e-09
32	Cc1noc(C)c1CSc1nc2ccccc2n1C
 : i	1.2%	-0.5%	i	6.6e-09
33	CCCc1[nH]nc2c1C(CCc1ccccc1)C(C#N)=C(N)O2 (stereo not drawn)
 : i	5.1%	0.3%	i	1.44e-08
34	COc1ccc(/C(O)=C2/C(=O)C(=O)N(CCCC(=O)O)C2c2ccc(OC)c(OC)c2)cc1 (stereo not drawn)
 : i	0.2%	-1.3%	i	1e-09
35	CCOC(=O)[C@@H](O)Cc1cnc2ccccc2n1
 : i	-0.6%[11.4 µM]	1.4%[11.5 µM]	i	2.51e-08
36	Cc1ccc(C(=O)Nc2ccccc2N2CCN(C(=O)C(C)C)CC2)cc1C
 : i	?	0.4%	i	3.1e-09
37	Cc1ccc(-c2cnc(NC(=O)CCC(=O)N3CCCCC3)n2C)cc1
 : i	-2.4%	-1.3%	i	2e-09
38	CSc1cccc(NC(=O)Cn2cccc2)c1
 : i	2.3%[11.4 µM]	-1.8%	i	2.96e-08
39	CCOC(=O)c1nn(-c2ccccc2)c(=O)c2c(N)scc12
 : i	-13.4%	4.4%	i	5.71e-08
40	Cc1cc(C(F)F)n2nc(C(=O)Nc3ccc(S(=O)(=O)N4CCCC4)cc3)nc2n1
 : i	4.7%	1.4%	i	4.4e-09
41	COc1ccc(C2C(C(=O)Nc3cccnc3)=C(C)Nc3nc(-c4cccs4)nn32)cc1OC (stereo not drawn)
 : ·	-9.3%	-0.7%	·	·
42	O=C1[C@@H]2Cc3ccccc3CN2C(=O)N1c1cccc(F)c1
 : i	5.7%	-1.0%	i	2e-09
43	Cc1cccc(C)c1NC(=O)C(NC=O)c1ccc(N(C)C)cc1 (stereo not drawn)
 : i	?	-0.4%	i	4.25e-08
44	CCOC(=O)NC(Nc1nc2ccccc2s1)(C(=O)OCC)C(F)(F)F (stereo not drawn)
 : i	·	-1.1%	i	1e-09
45	CCCc1ncc(C(O)c2cccc3ccccc23)n1C (stereo not drawn)
 : i	12.6%	0.8%	i	3.56e-08
46	COc1ccc(CC(=O)NCc2ccccc2)cc1S(=O)(=O)N1CCOCC1
 : i	·	-2.7%	i	1.77e-08
47	Cc1ccc(-c2nnn(CC(=O)NCc3ccccc3)n2)c(-n2cnnn2)c1
 : i	1.8%	2.3%	i	1e-09
48	Cc1ccc(C(=O)Nc2ccc(N3CCOCC3)cc2)cc1
 : ·	-11.4%	0.0%	·	·
49	Cc1ccccc1Nc1nc(N)nc(CN2CCN(c3ccccn3)CC2)n1
 : i	?	1.3%	i	4.39e-08
50	CCCc1cc(=O)n2[nH]c(NCc3c(Cl)cccc3Cl)nc2n1
 : i	-1.0%	0.1%	i	9.6e-09
51	CN(N=O)C(=O)N[C@H]1[C@@H](O)[C@H](O)[C@H](CO)O[C@@H]1O
 : i	1.0%[25.6 µM]	0.5%[25.7 µM]	i	5.7e-09
52	O=C(Cn1cnc2c(nnn2Cc2ccccc2)c1=O)c1ccc(Cl)cc1
 : ·	17.1%	-1.2%	·	·
53	COc1ccc(Nc2cc(C(=O)NCCCN3CCN(C)CC3)c3ccccc3n2)c(OC)c1
 : i	-6.1%[11.4 µM]	-0.8%	i	3.89e-08
54	O=C(NCCCN1CCCCCC1)C1CC(=O)N(C2CCCC2)C1 (stereo not drawn)
 : i	-1.7%	0.6%	i	1e-09
55	COc1ccc(N2C(=O)CCC(C(=O)NCCN3CCOCC3)C2c2ccc(OC)c(OC)c2)cc1 (stereo not drawn)
 : i	1.2%	2.7%	i	1e-09
56	O=C(CCCn1c(SCC(=O)c2ccc(F)cc2)nc2ccccc2c1=O)NCc1ccco1
 : i	?	0.2%	i	2.89e-08
57	O=C(O)CC1(Cc2nc(-c3cccs3)no2)CCCC1
 : ·	11.5%	-2.5%	·	·
58	O=C(c1cccc(COCC(F)(F)C(F)F)c1)N1CCN(c2ccccc2)CC1
 : i	3.4%	-1.5%	i	1e-09
59	CS(=O)(=O)N(CCc1ccccc1)CC(=O)Nc1ccc2c(c1)OCO2
 : i	-0.9%	1.8%	i	2.4e-09
60	Cn1c(SCC(=O)NCc2ccccc2)nnc1C1CC1
 : i	16.0%	0.6%	i	2.32e-08

Additional structures
Every second line gives: Resorufin autofl	TSHR agonist	AID923	A488 fluor	A647 fluor
61	CC1=C(C(=O)OCc2ccccc2)C(c2ccco2)n2ncnc2N1 (stereo not drawn)
 : ·	10.8%	-2.2%	·	·
62	Cn1c(=O)oc2cc(S(=O)(=O)N3CCN(c4ccccc4)CC3)ccc21
 : i	11.8%	-0.4%	i	1e-09
63	CCN[C@@H]1CN(CCCOC)S(=O)(=O)c2sc(S(N)(=O)=O)cc21
 : i	-2.8%[25.6 µM]	-1.8%[25.7 µM]	i	1e-09
64	O=c1c2nnn(Cc3ccc(Cl)cc3)c2ncn1Cc1ccc(F)cc1
 : i	14.5%	-1.1%	i	1.1e-09
65	Cc1ccccc1C(OCCN(C)C)c1ccccc1 (stereo not drawn)
 : i	·	0.3%	i	2.1e-09
66	Cc1cccc(-n2nc3c(c2NC(=O)c2ccc(Br)o2)CSC3)c1
 : i	5.9%[11.4 µM]	1.4%	i	4.9e-09
67	O=C(Oc1ccccc1)c1c(Cl)cccc1P(=O)(O)O
 : i	·	·	i	1e-09
68	CC(=O)Nc1cccc(NC(=O)c2c(-c3ccccc3)noc2C)c1
 : i	-1.2%	0.7%	i	1e-09
69	CCCc1nnc(NC(=O)CN2CCOCC2)s1
 : i	4.5%	0.0%	i	1e-09
70	CCOc1ccccc1NC(=O)CC1Nc2cc(C)c(C)cc2NC1=O (stereo not drawn)
 : ·	-20.1%	0.9%	·	·
71	COc1cccc(NC(=O)CNC(=O)c2ccccc2)c1
 : i	0.9%	-0.1%	i	1e-09
72	CCc1cccc(NC(=O)c2snc3c(=O)[nH]cnc23)c1
 : i	-2.1%	1.7%	i	2.98e-08
73	O=C(NC1CCCCC1)c1ccc(CNc2ccccc2)o1
 : i	19.6%	1.2%	i	5.8e-09
74	O=S(=O)(N1CCOCC1)n1nnc2ccccc21
 : i	1.0%	-1.9%	i	2.89e-08
75	Cc1cccc(-n2c(O)c(C=Nc3ccc4c(c3)OCO4)c3ccccc3c2=O)n1
 : i	-3.5%	19.0%	?	3.03e-08
76	CCSc1nnc(NC(=O)NC(CC)(C(F)(F)F)C(F)(F)F)s1
 : i	·	·	i	4.17e-08
77	Cn1cc(CNC(=O)C2c3ccccc3Oc3ccccc32)cn1
 : i	3.5%	0.7%	i	4.02e-08
78	CCN(CC)C(=O)C1CCCN(Cc2cccc(F)c2)C1 (stereo not drawn)
 : ·	6.8%[11.4 µM]	0.0%	·	·

Whole records, looked up by structure. Screens in order: Resorufin autofl, TSHR agonist, AID923, A488 fluor, A647 fluor
`CCc1cccc(NC(=O)c2snc3c(=O)[nH]cnc23)c1` as listed: i, -2.1%, 1.7%, i, 2.98e-08
`Cc1ccccc1C(OCCN(C)C)c1ccccc1` (stereo not drawn) as listed: i, ·, 0.3%, i, 2.1e-09
`CCSc1nnc(NC(=O)NC(CC)(C(F)(F)F)C(F)(F)F)s1` as listed: i, ·, ·, i, 4.17e-08
